Source: PubChem BioAssay
NOMO-1 viab – STK33 inhibitor candidate reducing NOMO-1 cell viability | NOMO-1 AML viability, CellTiter-Glo luminescence, 72 h | inhibition, % (test concentration not listed) | 37,000 compounds, 7.5% hits;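 active means most replicates above 80%; inconclusive means exactly half above 80%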;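 further: wells of about 30 µL received 25 nL stock; 0% = median of vehicle wells and 100% = reference inhibitor level; the first replicate is given; inactives centre near 10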
* hit, by the source's call; u = inconclusive. A portion of the library (hit frequency here may not be typical).

SMILES	NOMO-1 viab
CN1C2CCC1CC(NC(=O)c1nn(C)c3ccccc13)C2 (stereo unspecified)	-1
C[C@H]1CN([C@@H](C)CO)C(=O)Cc2cc(NC(=O)CCCCCC(=O)Nc3ccccc3N)ccc2O[C@@H]1CN(C)S(=O)(=O)c1ccc(F)cc1	13
C[C@H](CO)N1C[C@H](C)[C@@H](CN(C)Cc2ccncc2)Oc2ccc(NS(=O)(=O)c3cccs3)cc2C1=O	30
O=C(Cn1nnc2ccccc21)NCCN1CCCC1	24
C[C@@H]1CN([C@H](C)CO)C(=O)c2cccc(NS(=O)(=O)c3ccccc3)c2O[C@@H]1CN(C)C(=O)Nc1ccc2c(c1)OCO2	-1
C[C@@H]1CN([C@H](C)CO)C(=O)c2cc(NC(=O)Cc3cn(C)c4ccccc34)ccc2O[C@H]1CN(C)Cc1ccc(Oc2ccccc2)cc1	34
CC1(C)CC(=O)C2=C(C1)N(CCCN1CCOCC1)C(=O)C2(NC(=O)c1ccccc1)C(F)(F)F (stereo unspecified)	-1
O=C(CNC(=O)c1ccc([N+](=O)[O-])cc1)Nc1ccccc1C(F)(F)F	-12
C[C@H](CO)N1C[C@H](C)[C@H](CN(C)C(=O)Nc2ccc(C(F)(F)F)cc2)Oc2c(NC(=O)c3ccc(-c4nccs4)cc3)cccc2C1=O	93*
O=C(NC(Nc1ccc(Cl)cc1)C(=O)c1ccccc1)c1ccccc1 (stereo unspecified)	34
COc1ccc(S(=O)(=O)N(C)C[C@@H]2Oc3ccc(NC(=O)Cc4cn(C)c5ccccc45)cc3CC(=O)N([C@H](C)CO)C[C@@H]2C)cc1	31
C[C@H](CO)N1C[C@H](C)[C@@H](CN(C)S(=O)(=O)c2ccccc2)Oc2ccc(NS(=O)(=O)c3cn(C)cn3)cc2C1=O	5
CC(C)NC(=O)N(C)C[C@H]1OCCCC[C@@H](C)Oc2ccc(NC(=O)CCC(F)(F)F)cc2C(=O)N([C@H](C)CO)C[C@@H]1C	12
COc1ccc(NC(=O)Nc2ccc3c(c2)C(=O)N([C@H](C)CO)C[C@H](C)[C@@H](CN(C)Cc2ccc(C(=O)O)cc2)OCCCC[C@@H](C)O3)cc1	3
Cc1cc(NC(=O)C(=O)NCCCn2ccnc2)ccc1Br	28
C[C@@H]1CN([C@H](C)CO)C(=O)c2cc(NS(C)(=O)=O)ccc2O[C@H]1CN(C)C(=O)Nc1cccc2ccccc12	17
CC(=O)c1cccc(NC(=O)CN(c2cc(Cl)c(Cl)cc2Cl)S(C)(=O)=O)c1	36
C[C@H](CO)N1C[C@H](C)[C@@H](CN(C)Cc2ccc(C(F)(F)F)cc2)Oc2ccc(NC(=O)Nc3ccccc3)cc2C1=O	63
Cc1noc(C)c1NC(=O)Nc1ccc2c(c1)C(=O)N([C@@H](C)CO)C[C@H](C)[C@@H](CN(C)C)O2	17
CC(C)NC(=O)N(C)C[C@H]1Oc2ccc(NC(=O)Cn3cnnn3)cc2CC(=O)N([C@H](C)CO)C[C@H]1C	36
Cc1ccc(-c2cc(C(F)(F)F)n3ncc(C(=O)NCc4ccco4)c3n2)cc1	12
C[C@@H]1CN([C@H](C)CO)C(=O)Cc2cc(NC(=O)NC3CCCCC3)ccc2O[C@@H]1CN(C)S(=O)(=O)c1cccs1	-1
C[C@@H]1CN([C@@H](C)CO)C(=O)c2cc(NS(=O)(=O)c3cccs3)ccc2O[C@@H]1CN(C)Cc1ccc(Cl)c(Cl)c1	20
Cc1ccccc1NC(=O)C(=O)NCc1cccnc1	6
Cc1noc(C)c1NC(=O)Nc1ccc2c(c1)CC(=O)N([C@H](C)CO)C[C@@H](C)[C@@H](CN(C)S(C)(=O)=O)O2	-5
O=C(NCCCN1CCOCC1)c1cnn2c(C(F)(F)F)cc(-c3ccccc3)nc12	15
Cn1c2ccccc2c2nnc(SCc3ccc4nonc4c3)nc21	4
C[C@H]1CN([C@@H](C)CO)C(=O)Cc2cc(NC(=O)Nc3ccc4c(c3)OCO4)ccc2O[C@@H]1CN(C)S(=O)(=O)c1ccccc1	-6
C[C@@H]1CCCCO[C@H](CN(C)C)[C@@H](C)CN([C@H](C)CO)C(=O)c2cc(NC(=O)Cc3ccccc3)ccc2O1	-1
COc1ccccc1NC(=O)c1c(NC(=O)c2cccnc2)sc(C)c1C	39
COc1ccc(NC(=O)c2ccccc2NC(=O)COc2ccc(Cl)cc2)cc1	10
C[C@@H]1CCCCO[C@@H](CN(C)S(=O)(=O)c2cn(C)cn2)[C@@H](C)CN([C@H](C)CO)C(=O)c2cc(NC(=O)Nc3ccccc3)ccc2O1	23
Cc1onc(-c2ccccc2)c1C(=O)NCCCn1ccnc1	3
C[C@H]1CN([C@@H](C)CO)C(=O)c2cc(NC(=O)Cc3cn(C)c4ccccc34)ccc2O[C@H]1CN(C)C(=O)Nc1cccc2ccccc12	56
O=C(CC1(O)C(=O)N(C/C=C/c2ccccc2)c2ccccc21)c1ccccn1 (stereo unspecified)	123*
COc1ccc(Cl)cc1NC(=O)CSc1nnc(-c2ccccc2F)n1C	-3
Cc1ccc(S(=O)(=O)NC(C)C(=O)Nc2ccccc2F)cc1 (stereo unspecified)	32
CN1C(=O)CC(C(=O)NCCc2ccccc2)SC1=Nc1ccc(I)cc1 (stereo unspecified)	15
C[C@H](CO)N1C[C@H](C)[C@@H](CN(C)C(=O)NC2CCCCC2)Oc2c(NC(=O)c3ccncc3)cccc2C1=O	-11
C[C@@H]1CN([C@H](C)CO)C(=O)c2cccc(NC(=O)Nc3ccc(C(F)(F)F)cc3)c2O[C@@H]1CN(C)Cc1ccc(-c2ccccc2)cc1	u
COc1ccc(NC(=O)N(C)C[C@@H]2Oc3c(NC(=O)c4ccc(-c5nccs5)cc4)cccc3C(=O)N([C@H](C)CO)C[C@H]2C)cc1	11
C[C@@H]1CN([C@H](C)CO)C(=O)Cc2cc(NS(C)(=O)=O)ccc2O[C@H]1CN(C)S(=O)(=O)c1ccccc1	-10
COc1ccc(CN(C)C[C@H]2Oc3ccc(NS(=O)(=O)c4ccc(OC)cc4)cc3CC(=O)N([C@@H](C)CO)C[C@H]2C)cc1	14
CC(=O)N[C@@H](CSC/C=C(\C)CCC=C(C)C)C(=O)O	19
Cc1noc(C)c1NC(=O)Nc1ccc2c(c1)C(=O)N([C@@H](C)CO)C[C@@H](C)[C@H](CN(C)S(=O)(=O)c1ccc(Cl)cc1)O2	16
C[C@@H]1CCCCO[C@@H](CN(C)C(=O)CCC(F)(F)F)[C@@H](C)CN([C@H](C)CO)C(=O)c2cc(NS(=O)(=O)c3ccccc3)ccc2O1	11
COc1cc(C(C)CC(C)(O)CC(=O)O)oc(=O)c1C (stereo unspecified)	20
COc1ccc(NC(=O)N(C)C[C@H]2Oc3c(NC(=O)Nc4ccc5c(c4)OCO5)cccc3C(=O)N([C@@H](C)CO)C[C@@H]2C)cc1	7
COc1ccc(S(=O)(=O)N(C)C[C@H]2OCCCC[C@@H](C)Oc3ccc(NC(=O)Nc4c(C)noc4C)cc3C(=O)N([C@H](C)CO)C[C@@H]2C)cc1	-6
COc1cc(-c2oc3cc(O)cc(O)c3c(=O)c2O[C@@H]2O[C@H](CO)[C@@H](O)[C@H](O)[C@H]2O)ccc1O[C@@H]1O[C@H](CO)[C@@H](O)[C@H](O)[C@H]1O	-3
COc1ccc([N+](=O)[O-])cc1NC(=O)CN(c1ccc(Cl)c(Cl)c1)S(C)(=O)=O	-1
C[C@H]1CN([C@@H](C)CO)C(=O)c2cc(NS(=O)(=O)c3ccc(Cl)cc3)ccc2O[C@@H]1CN(C)C	3
c1ccc2c(c1)NC(c1ccc3c(c1)CCO3)n1cccc1-2 (stereo unspecified)	52
COc1ccc(S(=O)(=O)N(C)C[C@H]2Oc3ccc(NS(=O)(=O)c4cccs4)cc3C(=O)N([C@H](C)CO)C[C@@H]2C)cc1	-13
C[C@@H]1CCCCO[C@H](CN(C)C(=O)Nc2cccc3ccccc23)[C@@H](C)CN([C@H](C)CO)C(=O)c2cc(NC(=O)Nc3cccc4ccccc34)ccc2O1	20
Cc1ccc(-n2nc3ccc(NC(=O)COc4ccccc4C)cc3n2)cc1	6
C=C1CC[C@@H](C)[C@](C)(CCc2ccoc2)C/C=C\C=C/1C(=O)O	10
C[C@H](CO)N1C[C@H](C)[C@H](CN(C)S(=O)(=O)c2ccccc2)Oc2c(NC(=O)CCCCCC(=O)Nc3ccccc3N)cccc2C1=O	68
Cc1ccc(S(=O)(=O)Nc2ccc3c(c2)CC(=O)N([C@H](C)CO)C[C@H](C)[C@H](CN(C)S(C)(=O)=O)O3)cc1	-7
CC(=O)OCCCNC(=O)c1cc2ccccc2oc1=O	-19

(continued)
SMILES	NOMO-1 viab
Cc1ccccc1N(CC(=O)Nc1cccc2ccccc12)S(C)(=O)=O	27
C[C@H](CO)N1C[C@H](C)[C@H](CN(C)CC2CCCCC2)Oc2ccc(NC(=O)Nc3ccc4c(c3)OCO4)cc2CC1=O	17
CC(C)NC(=O)N(C)C[C@@H]1Oc2ccc(NS(C)(=O)=O)cc2CC(=O)N([C@@H](C)CO)C[C@@H]1C	11
O=S(=O)(c1ccccc1)c1nc(-c2ccccc2)oc1NCC1CCCO1 (stereo unspecified)	-4
COc1cc(Cl)c(C)cc1NC(=O)CSc1nnnn1-c1ccccc1	24
CC(C)NC(=O)Nc1ccc2c(c1)C(=O)N([C@H](C)CO)C[C@H](C)[C@H](CN(C)C)O2	-2
Cc1cccc(C)c1NC(=S)N(CCC#N)C(C)C	24
C[C@@H]1CN([C@H](C)CO)C(=O)c2cccc(NC(=O)c3ccncc3)c2O[C@@H]1CN(C)Cc1ccc(Oc2ccccc2)cc1	13
C[C@@H]1CN([C@@H](C)CO)C(=O)c2cccc(NC(=O)c3ccc(-c4nccs4)cc3)c2O[C@@H]1CN(C)Cc1ccc(C(=O)O)cc1	-19
Cc1noc(C)c1S(=O)(=O)Nc1ccc2c(c1)CC(=O)N([C@H](C)CO)C[C@@H](C)[C@H](CN(C)C(=O)Nc1cccc3ccccc13)O2	17
C=Cn1cnc2c1c(=O)n(C)c(=O)n2C	31
C[C@H]1CN([C@@H](C)CO)C(=O)c2cc(NS(=O)(=O)c3ccc(Cl)cc3)ccc2O[C@H]1CN(C)Cc1ccc(C(=O)O)cc1	17
Cc1ccccc1-c1nnc(SCC(=O)Nc2ccc(F)c(F)c2)n1C	15
O=C(Nc1ccc2c(c1)OCCO2)C1CCCN(S(=O)(=O)c2ccc(F)cc2)C1 (stereo unspecified)	-1
C[C@@H]1CN([C@H](C)CO)C(=O)c2cccc(N(C)C)c2O[C@@H]1CN(C)S(C)(=O)=O	2

Entries shown so far containing a COOH group:
SMILES	NOMO-1 viab
COc1ccc(NC(=O)Nc2ccc3c(c2)C(=O)N([C@H](C)CO)C[C@H](C)[C@@H](CN(C)Cc2ccc(C(=O)O)cc2)OCCCC[C@@H](C)O3)cc1	3
CC(=O)N[C@@H](CSC/C=C(\C)CCC=C(C)C)C(=O)O	19
COc1cc(C(C)CC(C)(O)CC(=O)O)oc(=O)c1C (stereo unspecified)	20
C=C1CC[C@@H](C)[C@](C)(CCc2ccoc2)C/C=C\C=C/1C(=O)O	10
C[C@@H]1CN([C@@H](C)CO)C(=O)c2cccc(NC(=O)c3ccc(-c4nccs4)cc3)c2O[C@@H]1CN(C)Cc1ccc(C(=O)O)cc1	-19
C[C@H]1CN([C@@H](C)CO)C(=O)c2cc(NS(=O)(=O)c3ccc(Cl)cc3)ccc2O[C@H]1CN(C)Cc1ccc(C(=O)O)cc1	17

Next compounds.
SMILES	NOMO-1 viab
C[C@H](CO)N1C[C@H](C)[C@@H](CN(C)S(=O)(=O)c2cccs2)Oc2ccc(NS(C)(=O)=O)cc2C1=O	10
CC(C)NC(=O)N(C)C[C@@H]1Oc2c(NC(=O)c3ccncc3)cccc2C(=O)N([C@@H](C)CO)C[C@H]1C	11
CC(C)NC(=O)Nc1cccc2c1O[C@H](CN(C)CC1CCCCC1)[C@H](C)CN([C@H](C)CO)C2=O	7
C[C@H](CO)N1C[C@H](C)[C@@H](CN(C)Cc2ccc(C(F)(F)F)cc2)Oc2c(NC(=O)C3CCOCC3)cccc2C1=O	17
C[C@@H]1CN([C@H](C)CO)C(=O)c2cccc(NC(=O)C3CCCCC3)c2O[C@@H]1CN(C)Cc1ccc(Cl)c(Cl)c1	53
C[C@H](CO)N1C[C@H](C)[C@H](CN(C)Cc2ccc(C(=O)O)cc2)Oc2ccc(NC(=O)Cn3cnnn3)cc2C1=O	-21
C[C@@H]1CN([C@@H](C)CO)C(=O)Cc2cc(NC(=O)CCCCCC(=O)Nc3ccccc3N)ccc2O[C@@H]1CN(C)Cc1ccccc1	113*
COc1ccc(CCNC(=O)c2ccnc(C(C)(C)C)c2)cc1OC	7
COc1ccc(NC(=O)N(C)C[C@@H]2Oc3ccc(NC(=O)Cc4cn(C)c5ccccc45)cc3C(=O)N([C@H](C)CO)C[C@H]2C)cc1	2
COc1ccc(S(=O)(=O)N(C)C[C@H]2Oc3ccc(NS(C)(=O)=O)cc3CC(=O)N([C@@H](C)CO)C[C@@H]2C)cc1	9
O=S(=O)(NCCc1ccccc1)c1ccccc1	8
O=S(=O)(CCc1ccncc1)c1ccccc1	-4
O=C(CCCCCC/C=C/c1ccc2c(c1)OCO2)N1CCCCC1	21
C[C@@H]1CN([C@H](C)CO)C(=O)Cc2cc(NC(=O)Nc3ccccc3)ccc2O[C@@H]1CN(C)CC1CCCCC1	104*

Two of these compounds in a different format:
> CC(C)NC(=O)N(C)C[C@@H]1Oc2c(NC(=O)c3ccncc3)cccc2C(=O)N([C@@H](C)CO)C[C@H]1C
  NOMO-1 viab = 11

> O=S(=O)(CCc1ccncc1)c1ccccc1
  NOMO-1 viab = -4
